Compound activity: PubChem BioAssay, several laboratories
YopH PTP inh: YopH tyrosine phosphatase inhibitors, primary screen, biochemical, fluorescence Ex485/Em525; YopH tyrosine phosphatase [Yersinia enterocolitica]; inhibition, %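 (about 10 µM by stock and volumes)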; hit rate 0.16% among 140,000; AID 898, 2007;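 active = inhibition of 50% or more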;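 note: controls were vehicle for no effect and minimum signal wells for full effect; inactives centre near -20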
RecA intein inh: Mtb RecA intein splicing inhibitors, primary screen, biochemical, fluorescence, HTS. Protein RecA (Mycobacterium tuberculosis (strain ATCC 25618 / H37Rv)), P9WHJ3. cell-free RecA intein splicing. inhibition, %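 (about 9 µM by stock and volumes)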. hit rate 0.75% among 290,000; in the data active = inhibition above about 30%; inconclusive = no clear call, values can overlap the other calls;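 note: 0% = vehicle wells and 100% = reference inhibitor control wells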
Target sequence (P9WHJ3 whole entry, looked up): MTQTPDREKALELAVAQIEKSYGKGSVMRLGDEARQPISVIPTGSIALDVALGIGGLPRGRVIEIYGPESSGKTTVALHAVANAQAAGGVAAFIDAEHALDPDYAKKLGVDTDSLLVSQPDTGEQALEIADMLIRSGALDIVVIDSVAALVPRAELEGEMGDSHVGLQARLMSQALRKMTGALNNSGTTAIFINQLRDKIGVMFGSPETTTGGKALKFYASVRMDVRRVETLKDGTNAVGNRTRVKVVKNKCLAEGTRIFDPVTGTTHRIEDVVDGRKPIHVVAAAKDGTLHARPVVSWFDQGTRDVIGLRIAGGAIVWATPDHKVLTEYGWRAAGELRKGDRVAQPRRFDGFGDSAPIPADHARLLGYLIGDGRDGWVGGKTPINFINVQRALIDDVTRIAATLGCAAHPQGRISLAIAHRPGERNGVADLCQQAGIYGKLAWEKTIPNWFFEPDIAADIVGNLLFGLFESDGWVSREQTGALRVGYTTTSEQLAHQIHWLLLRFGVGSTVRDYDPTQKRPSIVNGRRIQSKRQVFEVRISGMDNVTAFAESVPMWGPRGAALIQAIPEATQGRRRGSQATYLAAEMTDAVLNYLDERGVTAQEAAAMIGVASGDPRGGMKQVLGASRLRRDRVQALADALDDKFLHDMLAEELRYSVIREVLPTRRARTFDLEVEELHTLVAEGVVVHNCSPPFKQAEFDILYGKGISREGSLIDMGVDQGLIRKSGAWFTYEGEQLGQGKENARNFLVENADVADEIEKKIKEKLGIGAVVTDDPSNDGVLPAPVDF
Arbovirus inh: antivirals against arbovirus infection, primary screen, cell-based, full library, 10K replicate subset | arbovirus infection cell-based antiviral screen | AID 1251, 2008 | inhibition, % at 10 µM | hit rate 0.37% among 200,000;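 active = inhibition from about 30%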;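 note: bluetongue infection of BSR cells; cell survival read as ATP light after 72 h; 0% = infected wells without compound and 100% = uninfected wells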
Mtb growth: M. tuberculosis H37Rv growth inhibitors, H37Rv strain (AID 1626); M. tuberculosis H37Rv growth inhibition; higher % means a stronger effect; inhibition, % at 10 µM; hits with a dose series show IC50 in µM; hit rate 0.95% among 220,000;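 active = confirmed in a dose series; inconclusive = inhibition above 80% but not taken into the dose series; inactive = below 80% or under 30% at every dose of the series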;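 note: bacteria incubated seven days before Alamar blue readout; 0% = bacteria only wells and 100% = bacteria with antibiotic wells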
Mtb bLac sens: beta-lactam sensitization of Mtb H37Rv, H37Rv; M. tuberculosis H37Rv growth with meropenem, percent inhibition; hits of this screen are not shown here; inhibition, % at 25 µM; hit rate 0.27% among 330,000; AID 434955, 2010;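 active = about 74% or more and at least 40 points above the plate without the antibiotic, then above 30% in a dose series; inconclusive = first-round hits that could not be retested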;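 note: growth measured after seven days incubation then overnight dye step; 0% = bacteria only wells and 100% = bacteria with antibiotic; twin plates without the antibiotic show which effects depend on it; some results filed as inactive read as strong as hits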
Arbovirus inh repeat: also measured in Arbovirus inh; calls as there; inhibition, %; measured here: 10K subset replicate screen; many hits read low in the repeat;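 first of two repeat runs on a subset; 0% = infected and 100% = uninfected wells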
Starred values were filed as active, the others as inactive; ? = inconclusive; nt = no result given. These rows are one share of the data; count on the stated rates, not on these rows.

SMILES	YopH PTP inh	RecA intein inh	Arbovirus inh	Mtb growth	Mtb bLac sens	others
CCc1sc(C(=O)N2CCN(c3ncccn3)CC2)cc1Br	nt	-1.3	nt	nt	0
Cc1cccc(OCc2nnc(SCC(=O)Nc3cc(C)on3)n2C)c1	-26	4.0	6	-11%	-10
COc1ccc(C2CC(c3ccc(F)cc3)n3nc(NC(=O)c4ccco4)nc3N2)cc1 (stereo not drawn)	nt	nt	nt	-2%	-3
O=C(c1ccc([N+](=O)[O-])s1)N1CCc2ccccc2C1	nt	-3.8	-8	6%	2
O=C(NC1CC2CCCC(C1)N2CC(=O)N1CCCc2ccccc21)C1CCCCC1 (stereo not drawn)	5	1.6	-2	1%	-11
Cc1onc(-c2ccccc2Cl)c1C(=O)Nc1ccc(Br)cc1	nt	7.2	nt	nt	34
CNC(=O)C1CCN(S(=O)(=O)c2c(C)noc2/C=C/c2ccccc2F)CC1	nt	-0.8	nt	nt	-2
O=C(Nc1ccc2c(c1)OCO2)C1CC(c2ccc(Cl)cc2)=NO1 (stereo not drawn)	-19	2.5	-5	7%	-3
O=C(NNC(=O)c1ccco1)c1csc(N2CCOCC2)n1	nt	-2.4	nt	nt	-2
O=C(O)C(Cc1c[nH]c2ccccc12)NS(=O)(=O)c1cccc(Cl)c1Cl (stereo not drawn)	nt	2.2	nt	nt	-5
N#CC(C#N)=C1c2cc(S(=O)(=O)NCCO)ccc2-c2ccc(S(=O)(=O)NCCO)cc21	nt	-6.0	nt	0%	-12
C=CCn1cc(/C=C2\SC(N3CCOCC3)=NC2=O)c2ccccc21	nt	-4.7	nt	-1%	7
NC(=O)C[n+]1cccc2ccccc21	8	-5.0	2	5%	1
COc1ccc(-n2c(=O)c3ccccc3n(CC(=O)NC3CCCCC3)c2=O)cc1	-13	nt	3	-5%	-4
C[C@@H]1CC[C@H]2C(=O)N3[C@@H](CC[C@@H](C)[C@@H]3c3ccc(Br)cc3)C(=O)N2[C@H]1c1ccc(Br)cc1	-21	17	-20	13%	-4
CCOCCCNC(=O)/C=C1\Sc2ccccc2N(Cc2ccccc2F)C1=O	nt	20	-3	5%	-3
Cc1cccc(C)c1OCc1cc(C(=O)N(C)CCc2ccccn2)no1	nt	2.2	nt	nt	-9
N#Cc1ccccc1COC(=O)c1cccnc1N	nt	0.5	3	2%	5
Cc1ccc(N(C(=O)CNC(=O)c2ccco2)C(C(=O)NC2CCCCC2)c2ccncc2)c(C)c1 (stereo not drawn)	nt	-0.9	nt	nt	-6
O=C(COC(=O)c1ccc(Br)o1)Nc1nc2ccccc2s1	-44	5.4	4	-4%	4	Arbovirus inh repeat=0
COc1ccc(C(C)=O)cc1COC(=O)c1ccc2c(c1)OCO2	-55	1.6	-8	-10%	-10
O=Cc1c(NCc2cccc(F)c2)c2ccccc2[nH]c1=O	nt	0.4	nt	nt	-1
CN(C(=S)NCCN1CCOCC1)C(c1ccccc1)c1ccccc1	nt	nt	1	2%	4
COCCN(CCOC)C(=S)Nc1ccccc1	nt	0.3	19	-9%	1
CC1(C)C(=O)OC(c2cccn2-c2ccc([N+](=O)[O-])cc2)C2(CCCCC2)C1=O (stereo not drawn)	-18	-1.8	17	-1%	2
Cc1cc(C(=O)OCC(=O)Nc2ccccc2)c(C)o1	nt	-1.4	2	2%	5
Cc1ccc(Cl)cc1NC(=S)N1CCCCCC1	nt	0.4	nt	nt	4
COc1cc(NC(=O)NC2Cc3ccccc3C2)cc(OC)c1	nt	6.1	nt	nt	-5
Cc1ccc2cc(CN(C(=O)c3cccnc3)C(C)C)c(=O)[nH]c2c1	-10	0.4	5	1%	-11
CC1(C)Cc2c(ccc3ccccc23)C(c2cc3ccccc3oc2=O)=N1	-90	2.8	-3	2%	2
CC(C)Oc1ccccc1C1CC(=O)Nc2cc3c(cc21)OCO3 (stereo not drawn)	-38	nt	-13	2%	10
CC(C)(C)n1ncc2c(=O)n(CC(=O)NCc3ccc(F)cc3)cnc21	-22	-1.3	-6	-2%	-3
CC(=Nc1ccc(C)cc1C)c1sc2ccccc2c1O	nt	-2.4	-11	5%	62
CC12C(=O)N(c3nccs3)C(=O)C1C1C=CC2C1 (stereo not drawn)	-27	1.8	-2	4%	-6
CN(C)c1ccc(C2/C(=C(/O)c3ccccc3)C(=O)C(=O)N2CCCC(=O)O)cc1 (stereo not drawn)	nt	-8.0	nt	-5%	-5
SC(COCc1ccccc1)CN1CCN(Cc2ccc3c(c2)OCO3)CC1 (stereo not drawn)	-24	11	-12	14%	10
CC(C)C/C(=N/O)c1cn(C)c2ccccc12	nt	3.3	-4	3%	-5
Cc1[nH]n(-c2ccccc2)c(=O)c1C=Nc1cnc2ccccc2c1	-32	-2.9	0	?	99
OC(CNCc1cccnc1)COc1ccc2ccccc2c1 (stereo not drawn)	nt	0.7	nt	nt	1
CC(C)C[C@@]12C(=O)N(c3cccc(F)c3)C(=O)N1[C@H](c1ccc(F)cc1)[C@@H]1C(=O)N(C3CCCCC3)C(=O)[C@@H]12	nt	-4.1	nt	nt	0
Cc1cc(N2C(=O)C(O)=C(C(=O)c3ccco3)C2c2ccc([N+](=O)[O-])cc2)no1 (stereo not drawn)	nt	-2.3	nt	nt	1
BrC(=C\c1ccccc1)/C=N/Nc1nc2ccccc2[nH]1	-22	-2.9	4	5%	64
COc1ccc(C2c3ccc4ccccc4c3Oc3ncn(CCO)c(=N)c32)cc1OC (stereo not drawn)	nt	7.2	nt	nt	14
Cc1cc2oc(=O)cc(Cn3ccnc3)c2cc1C	-38	-2.1	9	-9%	-11
Cc1cc(C)c(C)c(S(=O)(=O)NCc2cccnc2)c1C	0	-3.8	-5	2%	?
CC(C)(C)NC(=O)CN(C(=O)Cn1nnc(-c2ccccc2F)n1)c1cccc2c1CCCC2	-10	8.3	-35	-6%	1
O=S(N1CCc2ccccc21)C12CC3CC(CC(C3)C1)C2 (stereo not drawn)	nt	1.4	7	8%	8
COc1ccc(CC(=O)NC(C)c2nnc(SCc3nc4ccccc4c(=O)[nH]3)n2C)cc1 (stereo not drawn)	-2	-0.5	5	-4%	-9
COc1ccc(NCc2cc(=O)oc3cc(NC(C)=O)ccc23)cc1	nt	2.2	nt	nt	5
S=c1[nH]nc(C2COc3ccccc3O2)o1 (stereo not drawn)	-9	1.2	7	0%	-5
Cc1ccc(NC(=S)NCc2ccc(S(N)(=O)=O)cc2)c(C)c1	nt	2.0	-1	3%	4
COc1ccc(OC)c(Nc2cc(C)c3ccccc3n2)c1	nt	5.3	nt	nt	39
Cc1c(C(=O)O)cccc1-c1ccc(/C=C2/NC(=O)N(c3ccccc3)C2=O)o1	nt	-18	23	-11%	3
O=S(=O)(c1ccc2c(c1)OCCO2)N1CCC(c2nc3ccc(Cl)cc3[nH]2)CC1	-30	9.6	-19	8%	71
CC(=O)N1N=C(c2ccccc2)OC12CCCC2	nt	-2.5	5	-9%	-7
O=C(C#Cc1ccccc1)Nc1ccc(F)cc1	nt	4.1	nt	nt	6
COc1ccccc1C(=O)NCCc1c(C)[nH]c2c(C)ccc(F)c12	nt	-4.4	0	5%	3
Cc1ccc(-c2cc(C(=O)NCC3CCCO3)no2)cc1 (stereo not drawn)	-8	0.5	-1	6%	6
O=C1c2ccccc2C(=O)N1Cc1nc2ccccc2c(=O)n1CCN1CCOCC1	-12	2.9	nt	-5%	1
O=C(CN1CCOCC1)N/N=C/c1ccco1	nt	0.9	7	-8%	3

15 successive compounds from above:
SMILES	YopH PTP inh	RecA intein inh	Arbovirus inh	Mtb growth	Mtb bLac sens	others
CC(C)(C)NC(=O)CN(C(=O)Cn1nnc(-c2ccccc2F)n1)c1cccc2c1CCCC2	-10	8.3	-35	-6%	1
O=S(N1CCc2ccccc21)C12CC3CC(CC(C3)C1)C2 (stereo not drawn)	nt	1.4	7	8%	8
COc1ccc(CC(=O)NC(C)c2nnc(SCc3nc4ccccc4c(=O)[nH]3)n2C)cc1 (stereo not drawn)	-2	-0.5	5	-4%	-9
COc1ccc(NCc2cc(=O)oc3cc(NC(C)=O)ccc23)cc1	nt	2.2	nt	nt	5
S=c1[nH]nc(C2COc3ccccc3O2)o1 (stereo not drawn)	-9	1.2	7	0%	-5
Cc1ccc(NC(=S)NCc2ccc(S(N)(=O)=O)cc2)c(C)c1	nt	2.0	-1	3%	4
COc1ccc(OC)c(Nc2cc(C)c3ccccc3n2)c1	nt	5.3	nt	nt	39
Cc1c(C(=O)O)cccc1-c1ccc(/C=C2/NC(=O)N(c3ccccc3)C2=O)o1	nt	-18	23	-11%	3
O=S(=O)(c1ccc2c(c1)OCCO2)N1CCC(c2nc3ccc(Cl)cc3[nH]2)CC1	-30	9.6	-19	8%	71
CC(=O)N1N=C(c2ccccc2)OC12CCCC2	nt	-2.5	5	-9%	-7
O=C(C#Cc1ccccc1)Nc1ccc(F)cc1	nt	4.1	nt	nt	6
COc1ccccc1C(=O)NCCc1c(C)[nH]c2c(C)ccc(F)c12	nt	-4.4	0	5%	3
Cc1ccc(-c2cc(C(=O)NCC3CCCO3)no2)cc1 (stereo not drawn)	-8	0.5	-1	6%	6
O=C1c2ccccc2C(=O)N1Cc1nc2ccccc2c(=O)n1CCN1CCOCC1	-12	2.9	nt	-5%	1
O=C(CN1CCOCC1)N/N=C/c1ccco1	nt	0.9	7	-8%	3

New compounds follow:
SMILES	YopH PTP inh	RecA intein inh	Arbovirus inh	Mtb growth	Mtb bLac sens	others
COc1ccc2c(c1)C(C)=CC(C)(C)N2S(=O)(=O)c1ccc(Br)cc1	nt	14	-20	-2%	-7
O=C(CN1CCN(CC(=O)Nc2ccccc2Cl)CC1)Nc1ccc(F)c(F)c1	nt	0.2	nt	nt	50
COc1ccc(C)cc1S(=O)(=O)n1c([N+](=O)[O-])cnc1C	nt	0.7	nt	nt	-14
CN1CCN(C(=O)/C=C/c2cn(-c3ccccc3)nc2-c2ccc3c(c2)OCCO3)CC1	nt	-3.4	-12	16%	64
O=C(/C=C(\c1ccccc1)n1cncn1)c1ccccc1	-26	4.6	-1	-1%	-5
COC(=O)C1=C(C)NC2=C(C(=O)CCC2)C1c1coc2ccccc2c1=O (stereo not drawn)	-15	-5.3	-1	8%	-14	Arbovirus inh repeat=2
Cc1cc(C)nc(SC2=CS(=O)(=O)c3ccccc32)n1	-14	0.6	-9	4%	-7
CCOc1ccc2nc(/N=C/c3c(C)[nH]n(-c4ccc(C)cc4)c3=O)sc2c1	-34	12	-14	9µM*	99
CCOc1ccccc1NC(=O)CSc1ccc(-c2ccco2)nn1	nt	7.7	nt	nt	-14
COCCNC(=O)/C(C#N)=C/c1ccc(O)c([N+](=O)[O-])c1	nt	0.0	-1	-1%	-2
